# Screens: PubChem BioAssay, several laboratories
# FGF22 binding: binders of recombinant human FGF22 by thermal shift; Q9HCT0; SYPRO orange fluorescence; percent of sucrose octasulfate shift, DMSO zero; calls only at 9.99 µM; 1.5% of 340,000 active;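 active = melting point raised past a set limit in the mean and every replicate; inconclusive = no clear call; three in four hits are not shown here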
# HNF4A DNA FP: change in binding of human HNF4 alpha to DNA; P41235; HNF4a-FITC DNA binding, fluorescence polarization, 1 h; activity change, % at 10 µM; 0.3% of 360,000 active; in the data active = activity change above about 30%, passing the limit was not always enough;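 note: controls were the assay level and a saturating level of protein; the project sought stronger binding though the title names inhibitors; some compounds called inactive have numbers as strong as hits; positive values seem to mean higher polarization but the record does not say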
# Target sequence (P41235 whole entry, looked up): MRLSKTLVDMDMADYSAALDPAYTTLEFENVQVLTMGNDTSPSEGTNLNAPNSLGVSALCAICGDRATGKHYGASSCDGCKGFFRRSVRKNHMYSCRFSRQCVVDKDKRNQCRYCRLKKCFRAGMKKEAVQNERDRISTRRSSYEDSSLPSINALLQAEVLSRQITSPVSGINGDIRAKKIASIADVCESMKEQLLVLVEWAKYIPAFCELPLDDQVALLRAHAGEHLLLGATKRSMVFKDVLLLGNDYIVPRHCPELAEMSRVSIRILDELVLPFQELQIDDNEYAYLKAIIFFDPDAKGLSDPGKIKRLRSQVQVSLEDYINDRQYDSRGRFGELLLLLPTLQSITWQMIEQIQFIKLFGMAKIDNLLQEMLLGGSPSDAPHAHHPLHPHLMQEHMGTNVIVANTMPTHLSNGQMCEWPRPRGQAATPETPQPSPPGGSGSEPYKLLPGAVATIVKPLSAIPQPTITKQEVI
# E coli growth: inhibitors of Escherichia coli growth. OD600 absorbance (test concentration not listed). OD600, 23 h; active compounds read low. 0.21% of 330,000 active. AID 1053175;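 active = OD600 absorbance below the run mean of sample wells minus 3.6 SD, in any replicate, cut at about 0.56 in these data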;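 note: stock transfer was 300 nL into about 60 µL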
# RanGTP-Imp inh: disruptors of Ran-importin-beta complex formation – biochemical, FRET, CFP-Ran, YFP-importin-beta, homogeneous, primary screen; inhibition, % (no concentration beside the values); cell-free CFP-Ran/YFP-importin-beta FRET ratio; 1.1% of 300,000 active;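 active = most replicates above 15%; inconclusive = exactly half above 15%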;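 note: 0% = DMSO wells and 100% = Ran loaded with GDP instead of GTP; wells of about 40 µL received 100 nL stock; the first replicate is given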
# Vif TR-FRET: inhibitors of Vif binding to APOBEC3G peptide, primary screen, biochemical, TR-FRET, GST-Vif 1-94, biotin-A3G peptide, dose response retest (AID 1117319). 0.57% of 260,000 active. TR-FRET GST-Vif / biotin-A3G peptide binding; higher % means a stronger effect; test concentration not given here; strong numbers were not always called active. one-dose inhibition, %; IC50 in µM for titrated hits;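 active = above the screen mean plus three standard deviations and confirmed in dose response; inconclusive = results disagree or hit not tested in dose response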;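 note: Vif residues 1-94 fused to GST binding biotinylated APOBEC3G peptide 110-148; 0% = full assay without inhibitor and 100% = GST in place of GST-Vif; retest series ran down from 100 µM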
# MLL AF4-AF9 inh: inhibitors of human MLL-AF4/AF9 interaction; P42568; AlphaScreen, biotin-AF4 peptide binding to FLAG-AF9; inhibition, % at 10 µM; 0.47% of 350,000 active;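 active = every replicate reaching a set inhibition limit, whatever the replicate mean, cut at about 25% in these data; inconclusive = mean inhibition reaches that limit but some replicates miss it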;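 note: 0% = plate neutral control median and 100% = total signal loss; the record names both 10 and 1 µM as test concentration; the first replicate is given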
# Target sequence (P42568 whole entry, looked up): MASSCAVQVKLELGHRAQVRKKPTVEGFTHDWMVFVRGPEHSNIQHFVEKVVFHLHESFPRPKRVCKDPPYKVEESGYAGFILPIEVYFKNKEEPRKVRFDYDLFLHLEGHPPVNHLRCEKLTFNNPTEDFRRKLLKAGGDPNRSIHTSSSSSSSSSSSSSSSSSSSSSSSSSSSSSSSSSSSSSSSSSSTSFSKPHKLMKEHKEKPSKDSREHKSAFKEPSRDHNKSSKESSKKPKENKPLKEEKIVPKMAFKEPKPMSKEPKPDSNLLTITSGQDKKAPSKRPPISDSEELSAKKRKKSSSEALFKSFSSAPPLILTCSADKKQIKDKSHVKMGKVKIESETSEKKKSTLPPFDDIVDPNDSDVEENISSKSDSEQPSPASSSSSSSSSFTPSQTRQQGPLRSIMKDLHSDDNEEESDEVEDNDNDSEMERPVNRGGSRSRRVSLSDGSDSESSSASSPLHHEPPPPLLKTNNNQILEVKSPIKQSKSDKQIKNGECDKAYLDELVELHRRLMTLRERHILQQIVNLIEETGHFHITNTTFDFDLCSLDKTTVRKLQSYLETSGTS
# UCH37 inh: blocks the human deubiquitinase UCH37; Q9Y5K5; purified proteasome/UCH37, Ub-AMC cleavage fluorescence; inhibition, % (test concentration not listed); 0.33% of 330,000 active; AID 588478;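 active = mean of two replicates above 20%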;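 note: 0% = compound-free wells with enzyme and 100% = wells lacking proteasome; stock transfer was 100 nL into about 20 µL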
#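 Material: human UCH37 enzyme supplied as purified proteasome complex. Measure: % inhibition of Ub-AMC cleavage fluorescence. Medium: pH 7.4 Tris-HCl (50 mM) with ovalbumin, ATP-MgCl2, DTT. Times: 30 min preincubation with enzyme, 25 min cleavage at room temperature. Detection: AMC fluorescence intensity at 355/460 nm.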
# Active calls of the source: *; i = inactive; ? = inconclusive; nt = not tested or not shown; & = joins results of further samples. This is a subset (hit frequency here may not be typical).
SMILES,FGF22 binding,HNF4A DNA FP,E coli growth,RanGTP-Imp inh,Vif TR-FRET,MLL AF4-AF9 inh,UCH37 inh
C/C=C/c1ccc(OCC(=O)OCc2csc(Nc3ccc(C)cc3)n2)c(OC)c1,i,4.3,0.713,0.3,3.9%,5.7,1.5
C=CCn1c(N)c(C(=O)Nc2cccc(C)c2)c2nc3ccccc3nc21,nt,-4.4,0.698,22.4*,4.0%,nt,-23.9
CCCCCC(=O)Nc1ccc(C(=O)N/N=C/c2ccc([N+](=O)[O-])cc2)cc1,i,-2.5,nt,-1.1,-4.0%,-36.4,nt
CCOc1ccc(NC(=O)C(C)NC(=O)c2ccccc2Cl)cc1S(=O)(=O)N1CCCC1 (stereo unspecified),i,-0.5,0.681,nt,-1.2%,-1.7,5.2
O=C(O)c1ccccc1-n1c2ccccc2c2ccccc21,i,-0.3,nt,?,0.4%,-1.0,nt
COc1ccc(OC)c(NC(=O)C(=O)NCc2ccncc2)c1,i,-1.3,0.692,-1.5,-7.9%,-0.1,2.7
O=C(NCCc1ccccc1)c1cccc2c1C(=O)N(C1CCCCC1)C2,i,-3.9,0.662,0.4,0.1%,-0.5,3.1
NC(=O)NCCN1CCN(c2ncc(C(F)(F)F)cc2Cl)CC1,i,-3.7,0.661,-2.4,12.9%,-3.0,2.4
COc1ccc(C(=O)O)cc1S(N)(=O)=O,i,1.8,0.727,3.2,-9.4%,2.6,1.4
O=C(COC(=O)CNC(=O)C1CCCCC1)Nc1ccccc1,i,-4.5,0.682,nt,nt,-5.7,2.7
COc1cccc(-n2cc(CN(C)Cc3nc(Cc4ccccc4)no3)cn2)c1,i,2.6,0.691,1.5,13.0%,-2.0,3.2
Cc1ccc(S(=O)(=O)N(C)C[C@@H]2Oc3ccc(NS(C)(=O)=O)cc3CC(=O)N([C@H](C)CO)C[C@@H]2C)cc1,i,-1.2,0.768,nt,nt,1.0,1.3
CC(NC(=O)COC(=O)CC(c1ccccc1)c1ccccc1)c1ccccc1 (stereo unspecified),i,-0.8,0.734,4.4,nt,0.1,5.3
CCOc1cc(C#N)ccc1OCC(=O)N1CCc2ccccc2C1,i,0.2,0.685,1.2,nt,-5.0,1.6
Cc1nn(-c2ccccc2)c(C)c1C=O,i,-3.8,0.696,-2.2,5.2%,1.3,-2.1
COc1ccc(/C=N/NC(=O)c2cc(C34CC5CC(CC(C5)C3)C4)[nH]n2)cc1O,nt,-0.8,nt,-0.7,3.8%,nt,nt
CCOC(=O)N1CCN(C(=O)CSc2nnc(Cn3c(=O)sc4ccccc43)n2C)CC1,i,2.6,0.663,nt,21.4%,-2.4,1.3
CCOC(=O)/C=c1\s/c(=C\c2ccc(C#N)cc2)c(=O)n1CC(=O)NCc1ccco1,i,1.9,nt,-1.5,7.2%,-1.4,nt
COc1ccc(C2C(C(=O)N3CCN(c4ccccn4)CC3)CCC(=O)N2c2ccc(OC)cc2)cc1 (stereo unspecified),i,-8.6,0.68,-2.3,-4.0%,3.6,0.0
CC(C)NC(=O)C1C(c2ccc(C(F)(F)F)cc2)=Nc2ccccc2N1C(=O)c1cccc2ccccc12 (stereo unspecified),i,0.7,nt,nt,nt,0.1,nt
CCOc1ccc(C(C)=O)cc1CN1c2ccc(S(N)(=O)=O)cc2CC1C (stereo unspecified),i,-0.1,nt,-0.1,-4.7%,2.5,nt
CC(=O)n1cc([C@H]2C=C(C(N)=O)O[C@@H](OCc3ccc(CO)cc3)C2)c2ccccc21,nt,-1.6,nt,2.3,nt,nt,1.3
Oc1ccc(Br)cc1-c1cc(-c2ccc(Cl)cc2)n[nH]1,nt,1.6,0.784,0.7,-0.6%,nt,-2.2
O=C(Cn1c(=O)c(=O)n(Cc2ccccc2)c2ccc(Cl)cc21)Nc1cccc(F)c1,nt,2.7,0.681,-0.7,nt,nt,-46.5
O=C(N=C1c2ccccc2CN1c1ccc(F)cc1)c1ccc(Cl)nc1,nt,5.4,0.65,-0.2,nt,nt,0.8
COc1ccc(C(=O)NCCOc2ccccc2)cc1S(=O)(=O)N1CCOCC1,i,-0.1,0.646,nt,-0.7%,-0.5,1.4
OCCN1CCN(C(=S)NC2CCCC2)CC1,i,4.7,0.662,-1.9,4.8%,-1.8,1.6
CCOC(=O)c1sc(NC(=O)CNCc2ccccn2)c(C(=O)OCC)c1C,i,5.6,0.687,-1.6,-27.6%,nt,1.6
CCOC(=O)C1=C(CC)Nc2ccccc2N/C1=N\S(=O)(=O)c1cc(Br)ccc1Br,nt,4.6,0.665,-2.0,4.5%,1.3,6.0
COc1ccc(CNC(=O)C2CCN(C(=O)N3CCOc4ccc(C)cc43)CC2)cc1,nt,1.5,0.739,nt,7.2%,nt,0.4
CC(Sc1nc2ccccc2s1)C(=O)Nc1ccc2c(c1)OCO2 (stereo unspecified),nt,5.4,0.69,-2.5,10.1%,nt,7.6
CC(Sc1nc(O)c(-c2ccccc2)c(=O)[nH]1)C(=O)Nc1ccc(Cl)cc1 (stereo unspecified),i,1.8,0.688,1.9,-4.5%,-0.2,7.4
CCOC(=O)c1ccc(COc2nc3ccccc3nc2-c2ccccc2NC(C)=O)o1,nt,-0.2,0.803,4.3,0.1%,nt,2.4
O=C(NCCc1ccccc1)C1(c2ccccc2)CCCC1,i,-3.4,0.612,?,-4.7%,-5.0,1.9
Cc1nn(CC(=O)Nc2ccc(S(=O)(=O)N(C)C)cc2)c(C)c1[N+](=O)[O-],i,0.0,0.661,-0.7,1.5%,4.4,6.0
CCOC(=O)N1CCN(CC(O)COCc2ccc(OC)c(OC)c2)CC1 (stereo unspecified),nt,3.3,0.664,-3.7,nt,nt,-0.8
Cc1cccc(C)c1Nc1ncnc2ccccc12,i,0.3,0.68,3.5,15.1%,2.1,3.7
COc1ccc(C(=O)NC(C)c2nnc(SCC(=O)NC3CCCCC3)n2C)cc1 (stereo unspecified),i,-2.3,0.64,-0.5,nt,-1.1,2.4
COCCN(CCOC)S(=O)(=O)c1ccc(/C(O)=C(\C#N)c2nc3ccccc3[nH]2)cc1,i,-1.5,0.714,?,-3.4%,0.2,-17.0
CCCCOc1ccc(C(=O)NNC(=O)c2cnccn2)cc1OC,i,-0.3,0.621,nt,2.6%,-1.6,4.6
Cn1cccc1/C=C1\SC(=S)N(NC(=O)c2ccccc2O)C1=O,i,101.4*,0.727,2.9,27.8%,12.5,15.1
C/C(=N\Nc1cccc(C(=O)O)c1)c1cc2ccccc2o1,i,-4.1,nt,-8.7,-11.9%,1.8,nt
Cc1ccc(-c2noc(CSc3nnc(Cc4cccs4)n3-c3ccccc3)n2)cc1,i,-2.0,0.747,1.3,0.4%,5.4,7.2
C[C@H]1COC(=O)[C@@H](Cc2ccc(F)cc2)C/C=C\C[C@H](CC(=O)NCCO)C(=O)N1,i,-4.7,nt,nt,nt,-0.7,1.0
O=C(CN(C(=O)CCC(=O)Nc1ccccn1)c1ccc2c(c1)OCCO2)NCCc1ccccc1,nt,-2.8,0.745,-0.2,2.7%&25.0%,nt,1.5
O=c1nc2s/c(=C\c3ccco3)c(=O)n2nc1Cc1ccccc1,nt,-12.2,nt,-1.2,4.18µM*,nt,nt
CC(=O)Nc1ccc(S(=O)(=O)N(C)CC(=O)OCC(=O)Nc2ccc3c(c2)OCO3)cc1,nt,1.3,0.724,5.1,-0.7%,nt,-2.5
CCOC(=O)N1CCC(NC(=O)c2cc(C(=O)Nc3cccc(OC)c3)ccc2CO)CC1,nt,-3.0,0.723,?,-2.0%,nt,5.3
CC1=CC(C)(C)N(S(=O)(=O)c2ccc(C)cc2)c2ccc(C)cc21,nt,-1.0,0.668,-2.3,-2.3%,nt,4.0
Cc1ccccc1NC(=S)N1CCN(c2ccccc2C)CC1,i,-0.9,0.723,3.5,-1.6%,-1.7,4.0
Cc1cc(C(=O)NNC(C)Cc2ccccc2)no1 (stereo unspecified),i,-0.4,nt,nt,-9.1%,-1.1,nt
Cc1cccnc1C(NC(=O)C1CCN(Cc2ccc(Cl)c(Cl)c2)CC1)c1ccc(Cl)cc1 (stereo unspecified),i,5.1,nt,nt,nt,3.8,nt
CC(C)Cn1c(N)c(C(=O)COC(=O)c2ccccc2F)c(=O)n(C)c1=O,nt,2.8,0.63,0.2,nt,0.4,0.5
CCn1c2ccc(C)cc2c2n[nH]c(=S)nc21,i,-5.1,0.616,-2.1,10.3%,-28.3,6.7
Cc1onc(-c2ccccc2)c1C(=O)OCC(=O)Nc1ccccc1Cl,i,-4.0,nt,nt,-4.7%,-6.2,nt
CC(C)C(O)(c1ccccc1)C(CN1CCOCC1)c1ccccc1 (stereo unspecified),i,1.3,0.634,4.0,-5.9%,1.7,5.9
Cc1c(NC(=O)c2ccc3c(c2)OCO3)cccc1-c1nc2ncccc2o1,i,1.2,0.699,0.3,15.7%,-1.2,5.0
CN1CCN(C(=O)c2cc(-c3ccco3)on2)CC1,nt,0.2,0.662,5.1,-6.3%,nt,0.2
CC(=O)c1cccc(NC(=O)c2cc(S(=O)(=O)N3CCOCC3)cs2)c1,i,-1.3,0.704,0.4,nt,-0.2,1.0
Cc1cnc(CN(C)Cc2c(C(=O)N3CCCCCCC3)nc3ccc(Cl)cn23)[nH]1,i,-3.3,0.649,-4.1,-5.1%,3.2,4.9
# Later entries:
SMILES,FGF22 binding,HNF4A DNA FP,E coli growth,RanGTP-Imp inh,Vif TR-FRET,MLL AF4-AF9 inh,UCH37 inh
O=C(CCc1nnc(-c2ccc3c(c2)OCO3)o1)N(Cc1ccncc1)CC1CCCO1 (stereo unspecified),i,2.9,0.64,3.6,?,-1.7,1.2
O=C(Nc1cccc(Oc2ccccc2)c1)C1Cc2c(-c3ccc4c(c3)OCO4)ccnc2O1 (stereo unspecified),i,-1.1,nt,nt,nt,0.3,nt
Brc1ccc(-c2csc(-c3ccncc3)n2)cc1,nt,0.4,0.644,-1.1,nt,nt,-4.1
O=c1ccc(/C=C/c2ccccc2)nn1Cc1ccccc1Cl,nt,0.0,0.742,4.2,0.5%,nt,-18.2
COC(=O)CCC(C)N1CCC(Oc2ccc(C(=O)NCc3ccccn3)cc2)CC1 (stereo unspecified),i,-4.3,0.65,10.0,nt,-0.3,0.0
CCCc1cc(=O)oc2c(C)c(OCC(=O)N3CCC(C(=O)O)CC3)ccc12,i,-0.4,0.712,0.5,nt,-2.0,-40.1
C=C1CCN(C(C(=O)OC)C(C)C)S(=O)(=O)c2ccccc21 (stereo unspecified),i,0.6,0.67,1.4,nt,-0.9,0.9
COc1ccc(NC(=S)NC(=NS(=O)(=O)c2ccc(Cl)cc2)c2ccccc2)cc1,i,5.0,0.674,nt,0.0%,-1.1,4.5
CC(C)c1ccc(NC2CCCN(C(=O)CCc3cnn(C)c3)C2)cc1 (stereo unspecified),i,-0.1,0.727,10.5,nt,0.5,-0.7
Cc1ccc(NC(=O)CSc2nnc(Cn3cnc4ccccc43)o2)cc1,nt,7.6,0.735,-0.3,-4.0%,nt,4.3
Cc1cc(OCCn2cnc3ccccc3c2=O)ccc1[N+](=O)[O-],i,0.3,0.681,-0.5,3.5%,-19.2,4.7
